Assay outcomes from PubChem BioAssay.
PABP FP inh: blocks human PABP binding to poly(A) RNA; AID 2014; P11940; inhibition, % at 35 µM; hit rate 1% among 290,000; fluorescence polarization;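 active = 50% or more with normal probe brightness, or confirmed in later tests; inconclusive = above 50% with abnormal brightness, or retests that disagree; inactive = below 50% or failed in later tests; about a fifth of its hits are not listed in these tables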;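 note: calls also rest on retests at 20 µM and on dose response follow-up; controls were probe without protein and protein plus probe with vehicle; some compounds called inactive have numbers as strong as hits; many hits fall short of the cut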
HIV Env fusion: inhibitors of HIV Env-mediated cell fusion | HeLa-JRFL Env/CEM21 cell fusion, luciferase | inhibition, % at 12.3 µM | hit rate 1.1% among 360,000 | AID 651610;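 active = mean replicate inhibition score of at least 50 and every replicate individually at or above 50; inconclusive = only one of the two criteria met; inactive = mean below 50 and not all replicates reaching 50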;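 note: 0% = plate neutral controls and 100% = maraviroc near 300 nM; one replicate is shown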
UUG fidelity: yeast start codon fidelity modulation | S. cerevisiae UUG-firefly luciferase reporter, luminescence/redox ratio | hit rate 0.13% among 350,000 | activity score, % at 18.7 µM | AID 602363;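 active = replicate mean at a twofold rise or more, about +100% in these data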;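 note: firefly luciferase made from a UUG start codon reports start codon fidelity; reporter light over untreated wells divided by growth signal over untreated wells; some hits fall short of that in this replicate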
MT1-MMP act inh: MT1-MMP (human) activation inhibition | HT1080 RFP-PRO-GFP cells, GFP/RFP ratio fluorescence, overnight; percent of plate control window, DMSO zero | AID 651647 | GFP/RFP ratio change, % at 20 µM | P50281 | hit rate 0.061% among 360,000;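 active = GFP/RFP ratio change of at least 30% with cell ATP level not reduced by more than half and red fluorescence within 50% of control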; note: strong numbers were not always called active
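Test system: HT1080 RFP-PRO-GFP cells; Benchmarks: DMSO and RFP-L50D-GFP cell wells; Timing: cells overnight before dosing, compound overnight, 37 °C, 5% CO2; Compound: one 20 µM compound dose with 1% DMSO; Read-out: GFP/RFP fluorescence ratio.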
Rce1 inh: yeast Ras-converting enzyme inhibition; Q03530; yeast membranes, quenched prenylated peptide cleavage fluorescence; calls only; hit rate 0.27% among 290,000; AID 2563;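 active = fall in fluorescence gain of 50% or more versus controls, with final raw signal at or below 3038400; inconclusive = same 50% fall but final raw signal above 3038400; inactive = fall in fluorescence gain under 50%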;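 note: plate controls were neutral control wells for no effect and wells lacking membranes for full effect; tested at 10 µM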
Target sequence (Q03530 whole entry, looked up): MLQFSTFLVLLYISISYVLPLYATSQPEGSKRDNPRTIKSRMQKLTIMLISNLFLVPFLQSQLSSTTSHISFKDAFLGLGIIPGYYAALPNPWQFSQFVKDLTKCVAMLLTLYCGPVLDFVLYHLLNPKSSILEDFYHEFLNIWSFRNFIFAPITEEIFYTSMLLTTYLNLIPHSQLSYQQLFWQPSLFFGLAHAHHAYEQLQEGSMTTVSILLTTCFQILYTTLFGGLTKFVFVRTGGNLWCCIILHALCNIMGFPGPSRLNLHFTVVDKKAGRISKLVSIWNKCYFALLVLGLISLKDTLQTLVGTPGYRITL
CSC inhib: cancer stem cell inhibition; inhibition, % at 7.5 µM; hit rate 1.1% among 300,000; AID 2717; cancer stem cell-like cells viability, luminescence;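 active = mean at 75% or more and at least half the replicates too; inconclusive = mean and replicates disagree; tested in HMLE shEcad cells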;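 note: 0% = median of negative and 100% = median of positive control wells; the first replicate is given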
eIF4H inh: inhibitors of RNA binding by human eIF4H | Q15056 | eIF4H fluorescence polarization binding assay | inhibition, % at 35 µM | hit rate 0.94% among 290,000 | AID 2012;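 active = 50% or more with normal probe brightness, or confirmed in later tests; inconclusive = above 50% with abnormal brightness, or retests that disagree; inactive = below 50% or failed in later tests; about a fifth of its hits are not listed in these tables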;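 note: calls also rest on retests at 20 µM and on dose response follow-up; 0% = protein and probe with vehicle and 100% = probe without protein; strong numbers were not always called active; many hits fall short of the cut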
MT1-MMP act inh RFP: also measured in MT1-MMP act inh; calls as there; RFP signal change, %; measured here: RFP expression control read;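 0 = vehicle wells; hits needed this value within 50% of zero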
* marks the source's active call; other numbers are inactive results; i = inactive; ? = inconclusive; . = not tested or not shown; & = joins results of further samples; [ ] = remark or other dose. The order is random; 3% or so of the library scored in one or more.

SMILES	PABP FP inh	HIV Env fusion	UUG fidelity	MT1-MMP act inh	MT1-MMP act inh RFP	Rce1 inh	CSC inhib	eIF4H inh
Cn1nnc2cc(NC(=O)N3CC4(C)CC3CC(C)(C)C4)ccc21 (configuration not stated)	-4.7	.	-2.3	1.7	6.1	i	-10.1	-9.9
O=C(NCc1cccs1)C1CCCN(S(=O)(=O)c2cccc3cccnc23)C1 (configuration not stated)	0.5	3.9	27.3	1.8	-1.4	i	-2.8	-5.7
COc1ccc(C(=O)NCc2nnc(SCC(=O)N3CCCCCC3)o2)cc1OC	-3.6	2.2	-3.1	0.8	-0.4	i	-4.8	-1.0
Cc1ccc(NC(=O)CSc2nnc([C@@H]3CCCN3C(=O)OC(C)(C)C)o2)c(C)c1	3.7	.	6.5	3.7	0.3	i	5.2	2.5
Cc1cccc(-n2nnnc2SCC(=O)Nc2ccc(N3CCN(C)CC3)cc2)c1	-10.9	-4.0	-5.4	-2.6	1.3	i	34.7	-15.3
Cc1ccc(N2CCN(C(=O)c3ccccc3NC(=O)C3CCCCC3C(=O)O)CC2)cc1 (configuration not stated)	-12.2	-1.6	3.8	-1.5	-0.3	i	-23.4	2.0
COc1ccc(C(=O)OCc2c(-c3ccccc3)ncc3ccccc23)cc1	.	10.8	-13.7	-0.8	-5.4	.	4.9	.
ClC1(CNc2ccccc2)CCN(Cc2ccccc2)CC1	.	8.8	.	0.4	0.8	i	6.4	.
Cc1cccc(C(=O)N/N=C/c2ccccn2)c1	-2.0	6.4	.	7.0	5.4	i	-8.7	8.0
c1ccc(-c2nc(-c3cccnc3)n[nH]2)cc1	5.9	-50.0	.	.	.	i	-21.2	7.1
CN1CCN(CC(=O)N2c3ccc(S(=O)(=O)NCCNC(=O)OC(C)(C)C)cc3C(=O)Nc3cccnc32)CC1	.	2.2	-4.5	-1.8	-0.2	i	9.3	.
Cc1ccccc1-n1cnnc1SCC(=O)N1CCN(c2ccccc2)CC1	-8.6	.	0.7	-3.0	-3.1	i	-22.3	-16.2
CC(=O)OCC(=O)[C@@]1(O)CC[C@H]2[C@@H]3CCC4=CC(=O)C=C[C@]4(C)[C@H]3[C@@H](O)C[C@@]21C	-9.9	.	-18.5	2.0	0.0	i	-3.1	4.7
COc1ccc(COc2cccc3ccc(C)nc23)cc1F	-1.9	-1.7	-6.3	0.8	0.5	i	20.9	-2.8
Cc1c(NC(=O)c2cc(-c3cccc(Cl)c3)on2)c(=O)n(-c2ccccc2)n1C	-5.3	-3.6	-12.9	1.4	0.3	i	-0.3	5.5
O=C(O)c1nccnc1C(=O)NCCc1c[nH]c2ccccc12	1.1	6.8	.	-2.2	5.1	i	7.6	3.1
COC(=O)c1ccc(CNC(=O)[C@@H]2CCCN2S(=O)(=O)c2ccccc2F)cc1	.	2.2	-2.1	3.3	3.0	.	2.2	.
CCN(CC)C(=O)C1=C(C)N(CCC2=CCCCC2)C(=O)C(CC(=O)NCCCN(C)C)C1 (configuration not stated)	.	-25.3	-0.3	-1.5	3.3	.	.	.
Cc1ccc(C(=O)N/C(=C/c2cccc([N+](=O)[O-])c2)C(=O)NC(C)C)cc1	-13.9	-29.4	.	-2.2	-3.3	i	-7.8	6.4
CCOC(=O)c1cn(CC(=O)Nc2ccccc2C(=O)OCC)nn1	0.3	-44.2	-8.4	-3.5	0.7	i	5.7	4.0
COc1ccc(S(=O)(=O)N2CCC(O)(c3ccc4c(c3)OCO4)CC2)cc1	-4.3	.	.	1.7	-0.3	i	-1.4	2.9
CCOC(=O)CSc1nc2ccccc2c(=O)n1CC1CCCC1	-4.4	.	-15.5	0.2	-3.2	i	12.4	1.8
CC(C)NS(=O)(=O)c1ccc(OCC(=O)NCc2ccc3c(c2)OCO3)c(Cl)c1	-7.3	.	-21.0	5.5	-1.6	i	1.0	0.7
O=C(NN=C1CCCC1)c1ccc(O)cc1	-1.8	-108.7	4.6	4.6	2.3	i	-10.3	-0.8
O=C(O)CSc1nc2ccccc2[nH]1	15.9	-42.6	1.9	-5.7	-1.2	i	-3.3	2.5
SMILES	PABP FP inh	HIV Env fusion	UUG fidelity	MT1-MMP act inh	MT1-MMP act inh RFP	Rce1 inh	CSC inhib	eIF4H inh
Cc1cc(NC(=O)CS(=O)(=O)c2ccc(Cl)cc2)no1	.	6.3	-17.6	-2.0	3.2	i	-3.0	.
COc1cccc(-n2c(=S)sc3c(=O)n(-c4ccccc4OC)c(=S)[nH]c32)c1	-0.6	-0.5	.	-0.8	-0.7	i	-20.7	-2.7
C=CCNS(=O)(=O)c1cc(S(=O)(=O)NCC=C)c(OC)cc1OC	4.4	-5.5	.	-5.7	-3.7	i	-2.0	-2.9
Cc1cc(C)c(C)c(S(=O)(=O)N2CCC(C(=O)NCc3ccco3)CC2)c1C	.	9.1	0.5	-6.5	-7.5	.	10.7	.
O=C(N=NC(=O)c1ccc2c(O)n(C3CCCCC3)c(O)c2c1)c1cccnc1	1.5	-68.8	-11.9	3.1	3.1	i	0.0	-6.1
CC(=O)Nc1ccc(C(=O)OCC(=O)Nc2ccc(N3CCOCC3)cc2)cc1	4.4	-3.1	-15.3	-1.1	0.3	i	-8.7	6.2
O=C(O)CCN1C(=O)C2C3c4ccccc4C(c4ccccc43)C2C1=O (configuration not stated)	-1.7	-10.0	.	5.1	4.1	i	13.9	-3.8
O=C(O)c1cc(NS(=O)(=O)c2ccc(N3CCCCC3)c([N+](=O)[O-])c2)cc(C(=O)O)c1	1.9	.	.	2.1	-1.2	i	-2.1	-6.7
CCCc1[nH]n(-c2nc3ccccc3s2)c(=O)c1C=NCCCOC	1.0	-6.5	-25.0	-0.2	3.2	i	-9.8	-3.8
COc1cc(NC(=O)c2ccc3c(SCC(=O)O)c4c(nc3c2)CCC4)cc(OC)c1OC	45.0	-15.3	-17.0	9.2	8.2	i	2.0	42.3
COc1ccc(N2CCN(C(=O)c3cn(C)c(=O)c4c3c3ccccc3n4C)CC2)cc1	9.4	.	19.8	7.1	-3.9	i	.	0.9
COc1ccc(NC(=S)Nc2ccc3nccnc3c2)cc1	21.5	-6.2	-15.6	-6.2	-6.1	i	-6.1	43.0
COc1ccc(C(=O)COc2nc(C)cc(C)c2C#N)cc1	5.2	-1.6	-13.1	9.5	0.2	i	-6.6	-5.0
NC(=O)C1CCN(CC(=O)Nc2cccc(C(=O)Nc3cccc(C(F)(F)F)c3)c2)CC1	-5.2	16.3	.	6.6	-4.9	i	-10.3	-6.7
COc1ccc(CC(=O)Nc2cccc3ccccc23)cc1OC	0.1	17.3	-15.4	2.9	-11.6	i	-4.5	1.1
O=S(=O)(/C=C/c1ccccc1)n1cnc2ccccc21	4.3	.	-15.9	-1.7	-2.3	i	-12.5	1.1
COc1ccc(N2CCN(c3ncnc4scc(-c5ccc(C)cc5)c34)CC2)cc1	-10.4	34.9	-11.2	-9.8	-11.3	.	51.8	-7.1
O=C1N(CCCCN2C(=O)C3(OCCO3)c3ccccc32)c2ccccc2C12OCCO2	-6.4	.	-1.7	-0.1	-2.6	i	-1.0	-7.4
CC1(C)Cc2ccccc2C(=NCC(=O)O)N1	-6.3	-1.4	.	2.4	5.5	i	13.4	1.3
C(=NN1CCCCCC1)c1ccc2ccccc2n1	.	?	-94.0	-4.9	-3.7	.	.	.
COc1ccccc1-c1nc(C#N)c(N2CCN(Cc3ccccc3)CC2)o1	-12.2	.	-11.1	3.6	-8.2	i	0.9	3.1
O=C(COC(=O)c1c(F)cccc1F)Nc1cccc(S(=O)(=O)N2CCCCC2)c1	.	-30.2	-1.2	3.2	2.3	.	.	.
Cc1ccc(S(=O)(=O)NNC(=O)c2ccccc2-n2cccc2)cc1	3.3	-15.3	-7.6	-2.9	2.1	i	-6.3	5.8
COc1ccccc1NC(=O)CSc1nnc(-c2ccc(NC(C)=O)cc2)n1C	5.8	.	-9.8	1.3	-1.2	i	-13.5	0.2
COc1ccc(N2CCN(C(=O)CCS(=O)(=O)c3ccc4c(c3)NC(=O)CO4)CC2)cc1	-3.9	1.5	-1.5	-2.3	-1.3	i	2.2	-8.0
SMILES	PABP FP inh	HIV Env fusion	UUG fidelity	MT1-MMP act inh	MT1-MMP act inh RFP	Rce1 inh	CSC inhib	eIF4H inh
CCOc1cc(C2CC(=O)NC3=C2C(=O)C(C(=O)OC)C(C)C3)cc(Cl)c1O (configuration not stated)	-2.6	.	-13.8	-0.1	3.3	i	-5.1	12.8
CC(=O)Nc1ccc(OCC(O)Cn2cnc3ccccc32)cc1 (configuration not stated)	-8.6	-30.0	-18.9	-0.5	-1.0	i	-8.7	-3.0
Cc1cc(NC(=O)CSc2nc3ccccc3n2CC(=O)N2CCCCC2)no1	19.6	.	3.1	3.8	7.0	i	.	-3.9
CCc1ccc(C2=NN(CCC(=O)NCc3cccs3)C(=O)CC2)cc1	-6.1	23.9	.	-3.4	-5.7	i	8.4	0.3
CCOC(=O)c1cc(C#N)c(N2CCN(C(=O)c3cccc(C(F)(F)F)c3)CC2)nc1C(F)(F)F	-4.4	6.0	.	5.4	-27.9	i	-5.6	-4.3
CCOC(=O)C1CCCN(C(=O)CN2C(=O)NC(C)(c3ccc4ccccc4c3)C2=O)C1 (configuration not stated)	.	-18.1	12.6	0.5	0.8	i	-7.8	.
COc1ccc(CCN(C)CC(=O)Nc2c(C)cc(C)cc2C)cc1OC	8.4	-21.5	2.0	4.3	3.2	i	-3.2	-2.5
CCOc1ccccc1/C=C(/NC(=O)c1ccccc1)C(=O)N1CCCCC1	3.1	16.6	4.0	-2.8	2.7	i	-3.0	-7.2
Cc1nc(N2CCN(c3ccccn3)CC2)c2c(C)c(C(=O)Nc3ccc(F)c(Cl)c3)sc2n1	11.1	29.4	-21.6	0.2	-12.4	i	32.7	3.8
COc1ccccc1NC(=O)C(=O)N/N=C(\C)CC(=O)Nc1ccc(OCc2ccccc2)cc1	4.8	.	-19.0	6.3	-3.5	i	-2.5	-2.3
Cc1ccc2nnnc(-c3ccccc3)c2c1	-9.8	.	-16.8	4.3	5.9	i	-7.3	-6.9
CCn1cc(C(=O)NCc2ccc(Cl)cc2)c(=O)c2cc(S(=O)(=O)N3CCOCC3)ccc21	5.3	12.0	-0.7	0.3	1.2	i	-23.9	-2.7
CC(C)N(CCCNC(=O)CC1Oc2ccccc2NC1=O)Cc1ccccc1 (configuration not stated)	8.3	-40.7	-7.3	-1.2	2.6	i	15.1	-8.0
Cc1cccc(N2CC(C(=O)OCC(=O)c3ccc(OC(=O)c4cccs4)cc3)CC2=O)c1C (configuration not stated)	4.5	-16.5	-12.1	3.1	-0.4	i	-14.3	0.7
COc1ccc(S(=O)(=O)N(C)C[C@H]2Oc3c(NC(=O)C4CC4)cccc3C(=O)N([C@H](C)CO)C[C@@H]2C)cc1	.	-12.6[16.7 µM]	5.7&-6.5	0.0	0.6	.	.	.
COc1ccc(-c2nc3ccc(C)cn3c2Cc2ccc(C)cc2)cc1OC	.	-9.6	-2.6	-0.7	-5.8	.	.	.

Looked up by structure from the list above (three):
SMILES	PABP FP inh	HIV Env fusion	UUG fidelity	MT1-MMP act inh	MT1-MMP act inh RFP	Rce1 inh	CSC inhib	eIF4H inh
COc1ccc(S(=O)(=O)N(C)C[C@H]2Oc3c(NC(=O)C4CC4)cccc3C(=O)N([C@H](C)CO)C[C@@H]2C)cc1	.	-12.6[16.7 µM]	5.7&-6.5	0.0	0.6	.	.	.
Cc1cc(NC(=O)CSc2nc3ccccc3n2CC(=O)N2CCCCC2)no1	19.6	.	3.1	3.8	7.0	i	.	-3.9
Cc1cccc(N2CC(C(=O)OCC(=O)c3ccc(OC(=O)c4cccs4)cc3)CC2=O)c1C (configuration not stated)	4.5	-16.5	-12.1	3.1	-0.4	i	-14.3	0.7
